# Screening data: PubChem BioAssay, several laboratories
# Ecoli growth: inhibitors of Escherichia coli growth; OD600 absorbance (concentration not given with the values); AID 1053175; 330,000 tested, 0.21% active; OD600, 23 h; active compounds read low;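 active = OD600 absorbance below the run mean of sample wells minus 3.6 SD, in any replicate, cut at about 0.56 in these data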;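 also: stock transfer was 300 nL into about 60 µL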
# B2AR ag: human beta-2 adrenergic receptor agonism by FAP. P07550. Am2.2-beta2AR cells, FAP receptor internalization, flow cytometry; reference of the scale not given here. response, % (concentration not given with the values). 340,000 tested, 0.43% active. AID 504454;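 active = response above a set limit, near 3 SD of response in nonfluorescent compounds, cut at about 42% in these data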;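 also: stock transfer was 100 nL into about 11 µL; a reference agonist was the positive control; negative values mostly stem from fluorescent compounds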
# Vif TR-FRET: inhibitors of Vif binding to APOBEC3G peptide, primary screen, biochemical, TR-FRET, GST-Vif 1-94, biotin-A3G peptide, dose response retest (AID 1117319) | TR-FRET GST-Vif / biotin-A3G peptide binding; higher % means a stronger effect; test concentration not given here; strong numbers were not always called active | inhibition, %, or IC50 in µM where a hit was titrated | 260,000 tested, 0.57% active;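 active = above the screen mean plus three standard deviations and confirmed in dose response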;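 also: Vif residues 1-94 fused to GST binding biotinylated APOBEC3G peptide 110-148; 0% = full assay without inhibitor and 100% = GST in place of GST-Vif; retest series ran down from 100 µM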
# LANA-H2A inh: blocks KSHV LANA binding to histone H2A/H2B. cell-free LANA-H2A/H2B peptide, fluorescence polarization. AID 2629. inhibition, % (test concentration not listed). 320,000 tested, 0.6% active; in the data active = inhibition mostly above about 10%, no sharp cut-off; inactive = mostly below about 6.7%;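 also: stock transfer was 7.5 nL into about 10 µL; 0% = median of vehicle wells and 100% = median of positive control wells; one replicate is shown; the record names a cut of 25% in any replicate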
# HNF4A DNA FP: change in binding of human HNF4 alpha to DNA; P41235; HNF4a-FITC DNA binding, fluorescence polarization, 1 h; activity change, % at 10 µM; 360,000 tested, 0.3% active; AID 1224865; in the data active = activity change above about 30%, passing the limit was not always enough;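 also: controls were the assay level and a saturating level of protein; the project sought stronger binding though the title names inhibitors; some compounds called inactive have numbers as strong as hits; positive values seem to mean higher polarization but the record does not say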
# Target sequence (P41235 whole entry, looked up): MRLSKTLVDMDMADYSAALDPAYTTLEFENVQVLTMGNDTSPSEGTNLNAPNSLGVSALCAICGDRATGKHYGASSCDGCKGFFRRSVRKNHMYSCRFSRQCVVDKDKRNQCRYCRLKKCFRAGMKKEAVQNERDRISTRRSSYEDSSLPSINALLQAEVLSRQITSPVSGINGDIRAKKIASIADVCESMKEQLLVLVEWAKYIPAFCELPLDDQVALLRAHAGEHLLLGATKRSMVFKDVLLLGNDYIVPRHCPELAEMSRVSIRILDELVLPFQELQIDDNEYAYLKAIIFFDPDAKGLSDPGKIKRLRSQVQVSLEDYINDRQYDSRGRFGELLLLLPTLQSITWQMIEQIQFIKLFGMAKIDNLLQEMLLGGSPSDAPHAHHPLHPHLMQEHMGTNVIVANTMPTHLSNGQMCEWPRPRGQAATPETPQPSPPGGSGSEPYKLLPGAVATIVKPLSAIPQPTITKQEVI
# UCH37 DUB inh: human UCH37 deubiquitinating enzyme inhibition; Q9Y5K5; purified proteasome/UCH37, Ub-AMC cleavage fluorescence; inhibition, % (concentration not given with the values); 330,000 tested, 0.33% active; AID 588478;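 active = mean of two replicates above 20%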;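 also: 0% = compound-free wells with enzyme and 100% = wells lacking proteasome; stock transfer was 100 nL into about 20 µL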
# Target sequence (Q9Y5K5 whole entry, looked up): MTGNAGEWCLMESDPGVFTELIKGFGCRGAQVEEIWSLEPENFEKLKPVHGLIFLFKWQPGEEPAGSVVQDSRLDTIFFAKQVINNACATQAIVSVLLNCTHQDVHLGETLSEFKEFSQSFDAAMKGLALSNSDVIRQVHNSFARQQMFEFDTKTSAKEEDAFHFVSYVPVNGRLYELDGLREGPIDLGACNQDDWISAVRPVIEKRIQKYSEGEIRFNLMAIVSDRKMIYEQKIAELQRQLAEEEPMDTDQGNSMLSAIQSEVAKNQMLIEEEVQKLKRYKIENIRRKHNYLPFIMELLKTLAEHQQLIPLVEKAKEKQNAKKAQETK
#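 Assay system: Proteasome-bound UCH37. Buffer or medium: pH 7.4 Tris-HCl (50 mM) with ovalbumin, ATP-MgCl2, DTT. Incubation: 30 min preincubation with enzyme, 25 min cleavage at room temperature. Measured by: fluorescence, ex 355 nm, em 460 nm. Read-out basis: percent inhibition. Control set: wells without proteasome as full block, compound-free enzyme plus substrate as uninhibited.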
# Bfl-1 A1 inh: inhibitors of the anti-apoptotic protein A1, read as caspase activation. MEF A1-2A-BIM cells, Caspase-Glo 3/7 luminescence, 3 h; percent of clofoctol response, vehicle zero. AID 2462. caspase activation, % (no concentration beside the values). 330,000 tested, 0.066% active;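 active = over half of replicate activation scores above 10%, or exactly half above 10 with the replicate mean above 10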;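 also: wells of about 30 µL received 50 nL stock; many hits fall short of the cut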
# * hit, by the source's call; · = not tested or not shown; & = joins results of further samples.
structure,Ecoli growth,B2AR ag,Vif TR-FRET,LANA-H2A inh,HNF4A DNA FP,UCH37 DUB inh,Bfl-1 A1 inh
O=[S@]1Oc2ccccc2-c2ccccc21,0.67,-7,·,-1.6,0.2,6.0,2.8
COc1ccc(-c2c(C(F)(F)F)nn(C)c2NC(=O)CSCC(=O)O)cc1,0.66,0,22%,6.1,0.0,7.0,0.8
O=C(Nc1cccc(C(F)(F)F)c1)C1C2CC3OC(=O)C1C3C2 (stereo unspecified),0.68,-1,15%,-6.4,-1.1,0.8,0.2
Cc1cccc(-c2oc3ccc(-c4ccc5c(c4)OCO5)cc3c2C#Cc2cncn2C)c1,·,8,·,5.3,2.7,·,-1.7
COc1ccc(-c2nnc(SCC(=O)NC3CCCCC3)n2N)cc1,0.67,-2,-4%,·,0.2,2.3,·
CCNS(=O)(=O)c1ccc(NC(=O)c2ccccc2SCCOC)cc1,0.67,7,13%,0.9,-3.1,-1.3,0.1
NS(=O)(=O)c1cccc(NC(=O)c2cccnc2Oc2ccccc2)c1,0.62,0,5%,-4.1,3.3,2.3,0.4
N#Cc1cccc(C(=O)Nc2cc(S(=O)(=O)N3CCOCC3)ccc2N2CCCC2)c1,0.67,-6,8%,8.3,0.2,3.6,0.4
Cc1ccc(S(=O)(=O)N2CCCC(C(=O)NCc3ccco3)C2)cc1Cl (stereo unspecified),0.74,-6,0%,-4.1,0.9,1.6,0.2
CC1(C(=O)NC2CCCC2)CCC(=O)N1Cc1ccccc1Cl (stereo unspecified),0.72,-1,3%,-1.8,1.7,0.2,-0.2
CCOC(=O)c1ccc(N(C(=O)c2cnccn2)C(C(=O)NC2CCCCC2)c2cn(C)nc2C)cc1 (stereo unspecified),0.7,5,33%,-5.2,1.5,0.6,-0.7
COc1ccc(C2C(Oc3ccccc3C)C(=O)N2Cc2ccc(F)cc2)cc1OC (stereo unspecified),0.66,13,0%,2.9,-2.0,-0.9,0.1
CCC1=NN(C(=O)c2ccccc2O)C(O)(c2ccccc2)C1 (stereo unspecified),·,0,1%,-7.7,-1.6,·,-1.6
CCOC(=O)Cc1nn2c(=O)cc(C)nc2s1,0.77,-2,5%,-0.4,3.1,4.2,-0.2
CC1CCCCC1NC(=O)C1Cc2ccccc2CN1S(C)(=O)=O (stereo unspecified),0.75,-2,-4%,0.8,-0.1,2.8,0.3
CC1CN(C2CCN(C(=O)c3cccc(Cl)c3)CC2)CC(C)O1 (stereo unspecified),0.75,5,-4%,0.5,0.3,2.6,0.1
Cc1ccc(NC(=O)Cc2ccc(Cl)cc2)nc1,0.69,-9,·,2.0,-0.9,2.2,0.5
COc1ccc(Br)cc1CN(C)C(=O)c1ccccc1SCC(=O)N1CCCC1,0.64,-4,3%,·,2.6,1.3,·
Cc1ccc(NC(=O)CSc2nnc(C)c(=O)n2N)cc1Cl,0.64,-7,·,-5.0,0.5,3.2,-0.1
COc1ccc(-c2nn(-c3ccccc3)cc2C(=O)Nc2nccs2)cc1OC,0.69,5,4%,0.5,1.4,-4.9,-0.4
COc1ccc(-n2c(SCC(=O)NNC(=O)c3ccc(C)cc3)nnc2-c2ccncc2)cc1,0.68,0,·,5.7,2.0,7.6,0.4
COc1ccc(Cc2nnc(NS(=O)(=O)c3ccc(NC(C)=O)cc3)s2)cc1,0.7,-3,-1%,6.5,-3.0,1.6,-0.4
Cn1cnnc1SCC(=O)Nc1ccccc1,0.72,0,-2%,1.4,0.8,7.8,0.8
OC1CNc2c(ccc3ccccc23)C1 (stereo unspecified),0.7,-5,1%,·,2.5,-273,·
CCN(CC)c1nc(Nc2ccccc2)nc(Oc2ccc(C(=O)OC)cc2)n1,0.66,-12,7%,-3.7,3.4,0.2,0.0
CC(C)(C)C(=O)Nc1cccc2[nH]ncc12,0.74,6,-5%,2.7,-0.5,0.7,0.2
COc1ccccc1CNC(=O)COC(=O)c1ccc([N+](=O)[O-])o1,0.61,0,·,3.4,1.0,13,-0.7
COC(=O)c1cc(C(=O)OC)cc(-n2c(C)cc(C(=O)CC#N)c2C)c1,0.69,9,17%,-1.0,1.5,2.1,0.1
CCOCCCNC(=O)c1ccccc1NC(=O)C1=C(C)OCCS1,0.61,16,-4%,4.2,1.1,1.5,0.5
Cc1ccc(NNC(=O)c2snnc2C)cc1Cl,0.65,6,32%,-1.6,1.6,1.1,-3.5

# Quoted from the listing.
# `COc1ccc(-n2c(SCC(=O)NNC(=O)c3ccc(C)cc3)nnc2-c2ccncc2)cc1` in HNF4A DNA FP shows 2.0
# `CC(C)(C)C(=O)Nc1cccc2[nH]ncc12` in B2AR ag shows 6
# `COC(=O)c1cc(C(=O)OC)cc(-n2c(C)cc(C(=O)CC#N)c2C)c1` in LANA-H2A inh shows -1.0

# Next part.
structure,Ecoli growth,B2AR ag,Vif TR-FRET,LANA-H2A inh,HNF4A DNA FP,UCH37 DUB inh,Bfl-1 A1 inh
CN(Cc1ccc(F)cc1)C(=O)c1ccc2c(c1)NC(=O)CS2,0.65,-1,-1%,0.1,-0.1,4.8,2.6
Cc1ccc(S(=O)(=O)N2CCCC2)cc1C(=O)NC1CCCCC1,0.67,-9,-3%,-1.8,0.4,0.1,0.4
COc1ccc(-c2cc(N3C(=O)Nc4ccccc4N3O)n[nH]2)cc1,·,0,24%,1.8,-1.1,5.3,0.3
COC(CNC(=O)c1ccc(Cn2c(=S)[nH]c3cc4c(cc3c2=O)OCO4)cc1)OC,0.67,-2,-8%,-3.5,-0.7,7.6,-1.0
C(=N\n1cnnc1)/c1cccs1,·,-9,0%,0.5,1.4,·,0.0
O=C(OC1CCCCC1=O)c1ccc(S(=O)(=O)Nc2ccccc2)cc1 (stereo unspecified),0.64,8,9%,4.6,0.1,1.9,-0.2
CC(=O)Nc1ccc(S(=O)(=O)NNC(=O)c2ccc3c(c2)OCO3)cc1,0.69,-1,-5%,-0.9,0.1,3.8,-0.1
C=CC[C@@H](Cc1ccc(F)cc1)C(=O)OC[C@@H]1CCCN1C(=O)[C@H](CC=C)CC(=O)N(CCO)Cc1ccccc1,·,1,·,-0.9,-3.3,2.2,0.7
COc1ccc(C2Nc3ccccc3C(=O)N2Cc2ccccc2)cc1CSc1ccccn1 (stereo unspecified),0.73,5,-16%,4.0,1.7,-195,0.3
Cc1ccc(SCCSc2nc(N)cc(=O)[nH]2)cc1,0.7,10,·,-3.1,-0.3,4.6,-1.5
O=C(O)CNC(=S)N(Cc1ccco1)Cc1ccccc1Cl,0.72,-1,-1%,3.1,3.0,2.8,-0.5
CC(C)[C@H](NC(=O)c1ccccc1)C(=O)N1CCc2ccccc21,·,7,·,5.2,0.1,3.1,-0.1
CCN(CC(=O)Nc1c(F)cccc1F)C(=O)c1cc(-c2cccs2)nn1-c1ccccc1,0.7,14,-4%,-3.8,3.1,2.8,2.3
CC(=O)Nc1cccc(NS(=O)(=O)c2cc3c4c(c2)CCN4C(=O)CC3)c1,0.67,6,5%,-0.3,-3.3,-0.2,0.1
Cc1cccc2c1cnn2C(=O)Nc1cc(F)ccc1F,0.7,-4,·,0.5,3.2,2.2,0.0

# Just LANA-H2A inh (two entries from above):
Molecule | LANA-H2A inh
C=CC[C@@H](Cc1ccc(F)cc1)C(=O)OC[C@@H]1CCCN1C(=O)[C@H](CC=C)CC(=O)N(CCO)Cc1ccccc1 | -0.9
COc1ccc(C2Nc3ccccc3C(=O)N2Cc2ccccc2)cc1CSc1ccccn1 (stereo unspecified) | 4.0

# Going on with the list.
structure,Ecoli growth,B2AR ag,Vif TR-FRET,LANA-H2A inh,HNF4A DNA FP,UCH37 DUB inh,Bfl-1 A1 inh
O=C(O)c1cc(-c2ccc(Cl)s2)[nH]n1,0.71,27,8%,1.7,-1.3,2.5,-1.2
Cc1nnc(SCC(=O)Nc2cccc(S(=O)(=O)N(C)c3ccccc3)c2)s1,0.68,-3,30%,-2.4,-2.2,2.1,-0.6
COc1ccc(OC)c(C=Nc2ccccc2-c2nc3ccccc3[nH]2)c1,0.69,-5,-7%,-1.9,0.3,-474,-0.2
CNC(=O)COc1coc(CN2CCN(c3ccc(OC)cc3)CC2)cc1=O,0.67,20,·,0.1,-2.3,3.8,0.9
Nc1cc(C(=O)OCC(=O)NCCCc2ccccc2)ccc1Cl,0.68,-6,·,-4.3,-1.8,-5.7,-0.5
CC1=NN(c2ccccc2)C(=O)/C1=C\c1cc(C)n(-c2ccccc2)c1C,0.74,-6,·,0.7,7.2,2.5,1.6
CCC(C)[C@H](NC(=O)[C@@H]1Cc2c([nH]c3ccccc23)C2c3ccccc3C(=O)N21)C(=O)NCC1CCCO1 (stereo partly specified),0.65,-7,·,4.2,-5.9,0.2,1.4
COc1ccccc1CC(=O)Nc1cccc(S(=O)(=O)N2CCOCC2)c1,0.67,-5,·,-3.4,-0.9,2.0,-0.6
CC(Oc1ccc(Cl)cc1Cl)c1ccn[nH]1 (stereo unspecified),0.62,3,2%,-6.3,-2.7,0.1,0.0
CC12CCC(=O)C=C1CCC1C2C(O)CC2(C)C(c3csc(N)n3)CCC12 (stereo unspecified),0.64,7,1%,·,3.4,0.1,·
C[C@H](CO)N1C[C@H](C)[C@@H](CN(C)S(=O)(=O)c2ccc(F)cc2)Oc2ccc(NC(=O)Nc3ccccc3)cc2C1=O,·,8,·,-7.8,0.8,1.1,-0.6
CCN(C(=O)COC(=O)c1ccc(O)cc1)c1cccc2ccccc12,0.68,-2,2%,-0.6,1.1,0.3,0.7
Cc1ccc(Oc2cc(C#N)c(C#N)cc2-n2nnc3ccccc32)cc1C,0.73,13,-7%,1.6,2.1,3.8,-1.4
CCCn1c(NC(=O)CCS(=O)(=O)c2ccc(C)cc2)nc2ccccc21,0.69,9,3%,13,18,-9.7,-0.2
O=C(CSc1nc2ccccc2c(=O)n1Cc1ccc(F)cc1)NCC1CCCO1 (stereo unspecified),0.72,-6,·,-7.3,-1.1,4.3,-0.3
Cc1cc(Cl)ccc1OC(C)C(=O)N1CCCN(C(=O)C(C)Oc2ccc(Cl)cc2C)CC1 (stereo unspecified),0.83,-1,-3%,0.5,0.9,5.2,1.3
CCCOC(=O)/C=C/c1c(C)[nH]c(=O)[nH]c1=O,0.72,1,·,-14,0.0,1.4,-1.1
COc1ccc(-c2cc(C(F)(F)F)nc(SCCC(=O)N3CCN4CCCC4C3)n2)cc1 (stereo unspecified),0.71,2,8%&7%,1.0,-4.4,-14,0.0
O=C(CN1C(=O)C2C3C=CC(C3)C2C1=O)N1CCc2ccccc2C1 (stereo unspecified),0.78,4,6%,3.7,-0.6,7.9,0.1
Cc1cc(C)cc(NC(=O)C2CC(=O)n3ncnc3N2)c1 (stereo unspecified),0.7,8,9%,3.3,4.7,0.2,0.5
NNc1nc(Nc2ccccc2)nc(Nc2ccccc2)n1,0.67,6,4%,-3.1,-4.1,1.0,-0.5
COc1ccc2c(c1)c1nc3ccccc3nc1n2Cc1ccc(OC)c(OC)c1,0.71,-5,·,4.5,-7.1,6.0,2.4
Cn1c2ccccc2c(=O)c2cc(C#CC3(O)CCCCC3)ccc21,0.62,8,·,-2.3,-4.0,-18,-0.2
C=C1CSc2nc(=O)c3c(C)c(C)sc3n21,0.7,-4,-2%,·,-2.5,4.1,·
COC(=O)C(Cc1ccc(O)cc1)NC(=O)C(C)Oc1ccccc1 (stereo unspecified),0.69,13,-6%,-2.3,-0.2,3.3,0.6
CN(C(=O)CN1C(=O)c2ccccc2S1(=O)=O)C1CCCCC1,0.67,4,1%,-1.6,-2.0,-3.0,0.1

# Compounds were not picked by outcome; any-hit rate near 2.1%.
